High-throughput results as filed in PubChem BioAssay.
KCNQ2 enhance: potentiators of rat KCNQ2 potassium channel; Potassium voltage-gated channel subfamily KQT member 2 (Rattus norvegicus), O88943; CHO-K1 KCNQ2, FluxOR thallium flux fluorescence; active compounds read high; B-score at 10 µM; 0.54% of 310,000 active; AID 2239, 2010;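 active = fluorescence ratio B-score at least 3 SD of library B-scores, with initial fluorescence B-score within 3 SD, cut at about 5.3 in these data; same plate scores as AID 2156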;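 also: B-score of peak minus minimum over baseline fluorescence ratio after K+ and Tl+ stimulus; positive B-score means potentiation of KCNQ2 with more thallium influx and brighter signal; only the inactives scoring about 0 or higher are listed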
Target sequence (O88943 whole entry, looked up): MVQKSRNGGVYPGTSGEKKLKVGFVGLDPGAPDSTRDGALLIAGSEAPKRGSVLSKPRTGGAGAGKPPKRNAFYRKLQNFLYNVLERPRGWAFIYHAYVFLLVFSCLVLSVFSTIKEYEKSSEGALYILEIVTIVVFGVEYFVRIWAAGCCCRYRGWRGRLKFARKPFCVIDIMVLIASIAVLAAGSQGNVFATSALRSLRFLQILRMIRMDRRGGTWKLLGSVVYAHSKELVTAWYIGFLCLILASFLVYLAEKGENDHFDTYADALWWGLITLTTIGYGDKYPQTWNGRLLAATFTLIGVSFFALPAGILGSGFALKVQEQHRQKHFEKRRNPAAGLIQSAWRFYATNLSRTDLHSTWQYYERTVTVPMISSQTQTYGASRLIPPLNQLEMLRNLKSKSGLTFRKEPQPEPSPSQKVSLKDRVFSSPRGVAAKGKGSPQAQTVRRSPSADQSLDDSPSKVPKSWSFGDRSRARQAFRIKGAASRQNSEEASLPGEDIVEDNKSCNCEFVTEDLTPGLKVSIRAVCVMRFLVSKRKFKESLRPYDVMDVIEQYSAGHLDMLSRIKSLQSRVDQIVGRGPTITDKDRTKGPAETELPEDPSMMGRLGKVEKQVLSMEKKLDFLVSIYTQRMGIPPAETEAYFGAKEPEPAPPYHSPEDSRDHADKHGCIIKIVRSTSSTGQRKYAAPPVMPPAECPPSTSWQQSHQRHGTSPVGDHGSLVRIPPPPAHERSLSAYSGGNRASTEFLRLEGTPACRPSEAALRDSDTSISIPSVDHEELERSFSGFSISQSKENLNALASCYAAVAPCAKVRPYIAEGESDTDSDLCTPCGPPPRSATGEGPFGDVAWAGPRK
KCNQ2 enhance baseline: second read-out of KCNQ2 enhance, no call of its own (marks repeat the call); B-score; compound at 10 µM; measured here: initial fluorescence intensity artifact check;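 brightness before thallium and not channel activity; 0 = typical well and far values either way flag optical interference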
The depositor's hits bear a star. The list is partial. The share of hits here may be higher or lower than overall.

compound | KCNQ2 enhance | KCNQ2 enhance baseline
COc1ccccc1NS(=O)(=O)c1cccc(NC(=O)c2[nH]c(C)c(C(C)=O)c2C)c1 | 1.5 | 0.65
Cc1cc(C)c2oc(C(=O)NCCc3ccc(S(N)(=O)=O)cc3)cc(=O)c2c1 | 0.5 | -0.39
CCn1c(C)nc2cc(C(=O)N/N=C/c3ccc(OC)c(O)c3)ccc21 | 0.68 | 1.2
COc1ccc(NS(=O)(=O)c2cccc(C(=O)NCC(c3ccc(F)cc3)N3CCOCC3)c2)cc1 (centres undefined) | 2.6 | 0.14
COc1cccc(NS(=O)(=O)c2cc3c4c(c2)CCC(=O)N4CCC3)c1 | 0.5 | 0.24
COC(=O)C[C@H]1c2cc(F)ccc2S(=O)(=O)N1C(C)C | 0.73 | 0.18
Cc1cn(S(=O)(=O)c2cc(Br)ccc2Br)cn1 | 0.78 | -1.4
COc1cccc(C2=NOC(C(=O)Nc3cccnc3Cl)C2)c1OC (centres undefined) | 2.1 | 0.54
N#Cc1c(-c2cccs2)cc(-c2cccs2)[nH]c1=O | 0.03 | -1.1
COc1cc(-c2ccc3oc(-c4ccsc4)cc3c2)cc(OC)c1OC | 0.18 | 0.63
O=C(NCc1cccs1)C(=O)NCC(c1ccco1)N1CCN(c2ccccc2F)CC1 (centres undefined) | 0.19 | -1.1
Nc1nc(-c2cccnc2)nn1S(=O)(=O)c1ccccc1 | 0.46 | -1.1
Cc1ccc(OCC2Cn3c(nc4c3c(=O)[nH]c(=O)n4C)O2)cc1 (centres undefined) | 0.08 | -1.5
O=C(c1ccc(-n2cncn2)c([N+](=O)[O-])c1)N1CCN(S(=O)(=O)c2cccc(F)c2)CC1 | 0.07 | 0.54
COc1ccc(C(=O)NCCc2cn3ccc(C)cc3n2)cc1 | 1.3 | -0.53
O=C1CCN(Cc2ccc(Br)cc2)CCN1[C@H](CO)Cc1ccccc1 | 0.35 | 0.11
CC(=O)Nc1ccc(OCC(O)Cn2c(CO)nc3ccccc32)cc1 (centres undefined) | 1.2 | 0.29
CC1(C)CC(=O)C(C2c3ccccc3S(=O)(=O)c3ccccc32)C(=O)C1 | 1.1 | 1.4
O=C(O)CC/C(=N/NC(=O)c1cccs1)c1ccccc1 | 1 | -1.7
CCn1cc(C(=O)OCC(=O)Nc2cc(S(=O)(=O)N(C)C)ccc2C)c(=O)c2ccc(C)nc21 | 0.61 | 0.22
COC(=O)c1cc(OC)c(OC)cc1NC(=O)c1ccco1 | 2.8 | 0
COc1ccc(S(=O)(=O)Cc2ccc(C(=O)N3CCC(C(N)=O)CC3)o2)cc1 | 1.4 | -0.44
Cc1ccc(NC(=O)Cc2ccc(Cl)c(Cl)c2)cc1S(=O)(=O)N(C)C | 0.86 | 1.9
CCCCC(=O)Nc1nnc(S(=O)(=O)N(CC)c2ccc(OC)cc2)s1 | 0.34 | 1.3
Cc1ccc2oc(=O)c3cc(C(=O)N4CCN(C(=O)c5ccco5)CC4)sc3c2c1 | 0.04 | -0.44
C(=C\c1nc2ccccc2[nH]1)/c1ccccc1 | 1.4 | -2.3
CCn1nnnc1SCC(=O)N1CCN(c2ccccc2)CC1 | 1.8 | 2.6
CCCOc1cccc(C2C(C(=O)c3cccs3)=C(O)C(=O)N2Cc2cccnc2)c1 (centres undefined) | 1.1 | 0.37
NC(=O)C(c1cccc(Cl)c1)c1ncc(C(F)(F)F)cc1Cl (centres undefined) | 0.47 | -2.1
CCOc1ccccc1-n1c(SCC(=O)N2CCCC2)nnc1-c1ccc(O)cc1 | 1.3 | -0.52
CCOC(=O)c1nn(-c2ccc(C)c(Cl)c2)c(=O)c(C#N)c1C | 0.24 | 0.99
CC1CCCN(S(=O)(=O)c2ccc(C(=O)Nc3nnc(-c4ccco4)o3)cc2)C1 (centres undefined) | 0.46 | 1
COc1ccc(S(=O)(=O)Nc2ccccc2C(=O)NC(C)(C)C)cc1OC | 1.5 | 0.83
COc1cccc(NC(=O)Cn2nnc(C(=O)Nc3cc(Cl)ccc3OC)c2N)c1 | 0.78 | -0.01
COc1cc(-c2nnc3n(CCc4ccccc4)c(=O)c4ccccc4n23)cc(OC)c1OC | 0.22 | 0.41
NC(=S)NC(=O)/C=C/c1ccccc1 | 0.12 | -1.5
COC(=O)CC1=NN(c2ccc(OC)cc2)C(=O)C1 | 0.02 | 0.1
Cc1cccc(NC(=O)NCc2ccc3[nH]c(C)cc3c2)c1 | 1.4 | -0.95
O=C(c1cccc(S(=O)(=O)Nc2ccccc2Cl)c1)N1CCCCCC1 | 1.7 | -1.7
O=C1c2ccccc2C(=O)N1CCCCSc1nc2ccccc2o1 | 0.98 | -0.03
CSc1ccc(S(=O)(=O)N2CCC(C(=O)Nc3ccccc3C(F)(F)F)CC2)cc1 | 0.19 | 0.87
O=C(Cc1ccc(Br)cc1)N1CCOCC1 | 1.4 | -3.3
CN(C)c1ccc(/C=N/Nc2cc(N3CCOCC3)nc(N3CCOCC3)n2)cc1 | 0.94 | -0.67
O=C(COc1ccc(Cl)cc1)NNC(=O)C(=O)N1CCCCC1 | 0.88 | 0.3
CC1(C)CCN(Cc2ccccc2)C1CC#N (centres undefined) | 0.13 | 0.27
Nc1nc(N)c(Cc2ccc(Cl)cc2Cl)c(N)n1 | 0.3 | -1.6
Cc1ccc(Nc2cccc(C(F)(F)F)c2)nn1 | 0.13 | 0.41
CC(NC(=O)c1cc2ccccc2oc1=O)c1ccc(O)cc1 (centres undefined) | 0.38 | -0.02
COc1ccccc1OCC(=O)O/N=C(\N)c1ccccn1 | 0.41 | -0.03
NNC(=O)c1cccc(COc2ccc(Br)cc2)c1 | 0.78 | -0.13
COc1ccc(C(=O)N2CCC(=O)N(C(CO)Cc3ccccc3)CC2)cc1 (centres undefined) | 0.15 | 0.04
COc1ccc(-c2nc(-c3cccc([N+](=O)[O-])c3O)cc(=O)o2)cc1OC | 0.41 | 1.6
CCOC(=O)C(/C=C(\C#N)C(=O)OCC)=C(/N)N1CCN(c2ccc(OC)cc2)CC1 | 0.01 | -1.4
CCOc1ccccc1NC(=O)COC(=O)C1CC1 | 0.35 | 0.39
C=CCn1c(SCC(=O)Nc2ccccc2C)nc2sc(C)c(C)c2c1=O | 1.1 | 2.1
Oc1cccc(/C=N/N2CCN(c3ccccn3)CC2)c1 | 0.49 | 0.01
CN(C)S(=O)(=O)n1cc(/C=C(\NC(=O)c2ccccc2F)C(=O)N2CCCC2)c2ccccc21 | 0.05 | -0.46
COC(=O)c1sc(NC(=O)c2ccc(Cn3cc(Cl)cn3)o2)c(C#N)c1C | 0.21 | -0.62
CCc1cccc2c(C(=O)CSc3nnc(-c4ccncc4)n3C)c[nH]c12 | 0.59 | -0.01
COc1cc(CC(=O)Nc2nc(-c3ccc(F)c(F)c3)cs2)cc(OC)c1OC | 0.04 | -0.89

New compounds follow
compound | KCNQ2 enhance | KCNQ2 enhance baseline
CC1CN(S(=O)(=O)c2ccc(NC(=O)CCN3C(=O)c4ccccc4C3=O)cc2)CC(C)O1 (centres undefined) | 0.62 | 2.6
CCC(=O)Nc1nnc(-c2ccco2)o1 | 0.03 | 0.03
O=C(CSc1nc2ccccc2c(=O)n1CCCN1CCOCC1)Nc1ccc2c(c1)OCO2 | 1.8 | -0.71
CC(=O)Nc1cc(C(=O)O)ccc1S(=O)(=O)c1ccc(C)cc1 | 1.1 | -0.1
CCOc1ccc(S(=O)(=O)NCc2ccccc2Cl)cc1C(N)=O | 2.1 | -0.44
CC[n+]1c(C)n(-c2ccccc2)c2ccc(NC(C)=O)cc21 | 1.4 | -0.42
Cc1c2c(nc3c(C(=O)NC4CCCC4)cnn13)CCCC2 | 0.61 | -0.11
CN1CCC(N(C)CC(=O)Nc2ccccc2N2CCOCC2)CC1 | 0.64 | 0.45
CN(Cc1ccco1)S(=O)(=O)c1ccc(CN2C(=O)c3cccnc3C2=O)s1 | 1.5 | 0.24
COc1ccccc1N1CCN(C2=NS(=O)(=O)c3ccccc32)CC1 | 1.3 | -1
CCOc1ccc(C2CC(c3ccccc3C)n3nc(N)nc3N2)cc1 (centres undefined) | 0.86 | 0.2
c1ccc(-c2cn3nc(-c4ccccc4)sc3n2)cc1 | 0.16 | -0.11

Quoted at random: five compounds from above
compound | KCNQ2 enhance | KCNQ2 enhance baseline
CC[n+]1c(C)n(-c2ccccc2)c2ccc(NC(C)=O)cc21 | 1.4 | -0.42
CCC(=O)Nc1nnc(-c2ccco2)o1 | 0.03 | 0.03
O=C(CSc1nc2ccccc2c(=O)n1CCCN1CCOCC1)Nc1ccc2c(c1)OCO2 | 1.8 | -0.71
CC(=O)Nc1cc(C(=O)O)ccc1S(=O)(=O)c1ccc(C)cc1 | 1.1 | -0.1
CN(Cc1ccco1)S(=O)(=O)c1ccc(CN2C(=O)c3cccnc3C2=O)s1 | 1.5 | 0.24

The listing picks up, starting three compounds before the break.
compound | KCNQ2 enhance | KCNQ2 enhance baseline
COc1ccccc1N1CCN(C2=NS(=O)(=O)c3ccccc32)CC1 | 1.3 | -1
CCOc1ccc(C2CC(c3ccccc3C)n3nc(N)nc3N2)cc1 (centres undefined) | 0.86 | 0.2
c1ccc(-c2cn3nc(-c4ccccc4)sc3n2)cc1 | 0.16 | -0.11
O=C1C(=C2SCCCS2)CC/C1=C\c1ccc(F)cc1 | 0.01 | -1.1
O=c1[nH]c(/C=C\c2ccccc2F)nc(O)c1[N+](=O)[O-] | 2.3 | -1.1
CCOC(=O)NC(=S)Nc1ccc(C(C)(C)C)cc1Br | 4.1 | -0.6
c1ccc(Sc2ncnc3ccccc23)cc1 | 0.01 | -1.2
CCCCCCSc1cccc(-c2nc3cc(C)ccn3c2NC2CCCCC2)c1 | 0.96 | -0.23
N#Cc1ccc(OCC(=O)NN2Cc3ccccc3C2=N)cc1 | 0.87 | 1.2
Cc1cc(C)c(CN2CCC(n3nccc3NC(=O)c3ccccc3Cl)CC2)cc1C | 0.63 | -1.1
CN1C(=O)C2(N=c3ccccc3=N2)c2ccccc21 | 0.02 | -1.8
O=C(COC(=O)CSCc1ccccc1)NCc1ccccc1 | 0.4 | -0.57
O=C(NCCSCc1ccco1)Nc1ccc(Cl)cc1 | 0.24 | -0.1
Cc1c(-n2cc(C(=O)c3cc(Br)ccc3O)cc(C#N)c2=O)c(=O)n(-c2ccccc2)n1C | 0.08 | 0.04
CCC(C)n1[nH]c(=O)c2c(C)cc(C)nc21 (centres undefined) | 0.09 | 2.7

(listing goes on)
Value order – KCNQ2 enhance | KCNQ2 enhance baseline
CCC1CCCCN1CC(C)(C)NS(=O)(=O)c1ccccc1 (centres undefined)
  2.8 | -0.25
C=CCNc1cc(=O)n(Cc2ccccc2)c(=O)[nH]1
  0.7 | -0.68
O=[N+]([O-])c1ccc(-c2cn(-c3ccccc3)c(=S)[nH]2)cc1
  0.94 | 1.9
COc1cc2[nH]c(=S)nc(NCc3ccc(C)cc3)c2cc1OC
  0.94 | 0.22
CNC(=O)c1ccc(CNC(=O)OCc2ccccc2)cc1
  1.2 | 2
CCOc1ccc(N2C(=O)CC(N(Cc3ccco3)C(=O)CCC(=O)O)C2=O)cc1 (centres undefined)
  0.27 | 1.1
Cc1ccc(CN2CCc3[nH]c(=S)[nH]c(=O)c3C2)cc1
  0.03 | 0.48
COC(=O)C1=C(C)OC(N)=C(C#N)C1C1CCCCC1 (centres undefined)
  0.16 | -0.11
CC(C)CC(=O)Nc1ccccc1N1CCN(c2ccccc2)CC1
  1.1 | -1.4
COc1cccc(CCc2nnc(CCC(=O)N(C)C3CC(C)(C)NC(C)(C)C3)o2)c1
  1.1 | -1.8
O=C(NC(=S)Nc1ccc(Cl)cc1)c1cncc(Br)c1
  2.9 | -0.02
CCC(C)NC(=O)C1CC(c2cccc(OC)c2)=NO1 (centres undefined)
  0.72 | -0.34
COc1cc(OC)c(OC)cc1/C=N/NC(=O)c1cnccn1
  0.02 | -0.91
CCCCNC(=O)c1ccc(CS(=O)(=O)c2cccc(C(F)(F)F)c2)o1
  0.44 | -1.6
Cc1ccc(OCCNC(=O)c2ccco2)cc1C
  0.06 | 1.6
O=C(NNC(=O)c1ccncc1)c1ccncc1
  0.51 | -2.1
O=C(N=NC(=O)c1ccc2c(O)n(CC3CCCO3)c(O)c2c1)c1cccnc1 (centres undefined)
  0.78 | 0.17
Cn1nc(C(=O)NCc2ccc(Cl)cc2)c2c1-c1ccccc1S(=O)(=O)C2
  0.69 | -1.1
COC(=O)c1cccc(NS(=O)(=O)c2ccc(OC)c(C(=O)N3CCOCC3)c2)c1C
  2.1 | 1.3
CN(C)/C=C/C(=O)c1ccc(N2CCN(c3ncc(C(F)(F)F)cc3Cl)CC2)cc1
  0.34 | -0.4
COc1ccc(CNc2nccs2)cc1
  0.07 | -1.4
CCC(C)NS(=O)(=O)c1ccc(NS(=O)(=O)c2ccccc2[N+](=O)[O-])cc1 (centres undefined)
  1.1 | 1.6
CCC(C)C(=O)Nc1cc(C(=O)OC)ccc1C(=O)OC (centres undefined)
  0.24 | 1.2
CCOc1ccc(S(=O)(=O)Nc2ccc(F)cc2)c(C)c1C
  0.88 | 0.78
Cc1ccc(CNC(=O)C2CCCC2)cc1
  0.26 | 1.2
O=C(CNC(=O)C1COc2ccccc2O1)N/N=C\c1ccc(Cl)cc1 (centres undefined)
  1.8 | -0.74
COc1ccc(-c2cc(N)n(S(=O)(=O)Cc3ccccc3)n2)c(OC)c1
  1.7 | 0.15
Cc1onc(-c2ccccc2)c1C(=O)NC(C)C
  1.1 | -1.4
